VACV Venus inh – vaccinia inhibition (Venus reporter); Vaccinia virus Venus reporter expression, fluorescence; Potency, µM (highest dose often 36.5 µM), for the others: at the top dose activity change, negative = inhibition, hits mostly inhibitors; 330,000 tested, 0.46% active; AID 720580; active means well fitted inhibition curve with a large enough effect; inconclusive means small, poorly fitted or top-dose-only effect; inactive means no such curve, though single readings can be large or run the other way; tested in A549 cells; also: nearly all actives have a fitted effect of over 30% in size; inactives centre near -10
VACV mCherry inh – inhibitors of vaccinia virus infection (mCherry reporter signal). 310,000 tested, 0.63% active. Vaccinia virus mCherry reporter infection, fluorescence; about a quarter of the inactives have no number. Potency, µM (doses to about 36.5 µM), inactives show top-dose activity change, negative = inhibition, usual class: inhibitors. AID 720579; active = well fitted inhibition curve with a large enough effect; inconclusive = small, poorly fitted or top-dose-only effect; inactive = no such curve, though single readings can be large or run the other way; tested in A549 cells; also: nearly all actives have a fitted effect of over 35% in size; inactives centre near -10
An asterisk follows results filed as active; i = inactive; u = inconclusive; x = not tested or not shown; [ ] = remark or other dose. % is scaled to controls: 0 for no effect and ±100 for the full control effect; potency is read from the fitted curve at half-maximal effect.

SMILES	VACV Venus inh	VACV mCherry inh
COc1ccccc1C1CN(Cc2cccc3c2OCO3)Cc2ccccc2O1 (centres undefined)	-7%	-14%
CCN(CC)c1cc(CS(=O)c2ccccc2)nc(-c2ccccc2)n1 (centres undefined)	0%	-3%
COc1ccc(CC(=O)OCN2C(=O)c3ccccc3C2=O)cc1	9%	x
O=C(CSc1ccc([N+](=O)[O-])cn1)Nc1ccc2[nH]c(=O)[nH]c2c1	-6%	-13%
O=C(CCSc1nc(-c2ccco2)cc(C(F)(F)F)n1)NCc1cccs1	-29%	x
CN(C(=O)CSc1cn(CC(=O)N2CCCCCC2)c2ccccc12)c1ccccc1	-2%	-12%
O=c1oc(-c2ccco2)nc2sc3c(c12)CCCC3	-6%	i
COc1cc2c(cc1OC)/C(=C/C(=O)c1cccc([N+](=O)[O-])c1)NCC2	-22%	u
COc1ccc(C2C(C#N)=C(N)Oc3c2c(-c2ccccc2)nn3-c2ccccc2)c(OC)c1OC (centres undefined)	-29%	-16%
O=C(COC(=O)C1CC1)NCc1ccccc1	1%	-4%
COC(=O)[C@@H](Cc1ccccc1)NC(=O)Cn1cnc2c(SC)nc(N)nc21	-9%	-7%
CNC(=S)N(CCCn1ccnc1)Cc1c(F)cccc1Cl	4%	i
O=C(CSc1nc(=O)n(CCCN2CCOCC2)c2c1CCC2)Nc1ccc([N+](=O)[O-])cc1	-13%	-2%
CC(CNCCCn1ccc(NC(=O)OCc2ccccc2)nc1=O)c1ccccc1 (centres undefined)	-23%	i
Cc1ccc(Cl)c(NC(=S)N(CCCN2CCOCC2)Cc2ccco2)c1	-19%	-5%

Single records (already shown):
Record of COc1cc2c(cc1OC)/C(=C/C(=O)c1cccc([N+](=O)[O-])c1)NCC2 = VACV Venus inh: -22%; VACV mCherry inh: u
Record of O=c1oc(-c2ccco2)nc2sc3c(c12)CCCC3 = VACV Venus inh: -6%; VACV mCherry inh: i

(continued)
SMILES	VACV Venus inh	VACV mCherry inh
CC(C)n1nnnc1SCC(=O)NC1CCCC1	4%	17%
Cc1ccc(NC(=O)Cn2cc(S(=O)(=O)c3ccccc3)c(=O)c3cc4c(cc32)OCO4)cc1	-8%	-8%
CCOc1cc(/C=N/NC(=O)CCc2n[nH]c(=O)[nH]c2=O)ccc1O	-20%	i
COc1ccc(OCC(O)CNC(=O)Nc2ccc(Cl)cc2)cc1 (centres undefined)	-4%	-4%
COc1cc(OC)c(C(=O)c2ccccc2[N+](=O)[O-])c(OC)c1	-10%	i
COc1ccccc1N1CCN(S(=O)(=O)c2c(C)ccc3nsnc23)CC1	-19%	-21%
CC1CCN(Cc2c(C#N)c3ccccc3n2C)CC1	-12%	i
c1ccc2c(c1)CN1C(=N2)COc2ccccc2C1c1nc2ccccc2[nH]1 (centres undefined)	-7%	-4%
O=C(c1cc([N+](=O)[O-])ccc1N1CCN(S(=O)(=O)c2ccc(Cl)c(Cl)c2)CC1)N1CCOCC1	-30%	-14%
COC(=O)C1=CN(c2ccc(OC)cc2)C=C(C(=O)OC)C1c1cc(OC)c(OC)cc1OC	-7%	-5%
Cc1cccc(OC(C)c2ccnc3nc(/N=C/N(C)C)nn23)c1 (centres undefined)	-4%	-12%
COc1cccc(-c2nc(CN3CCN(C(=O)c4ccco4)CC3)c(C)o2)c1OC	-12%	-4%
CCN(CC(=O)Nc1ccccc1OC)C(=O)C1CCCC1	-3%	-1%
CCN(C(=O)c1sc2nc3n(c(=O)c2c1C)CCCCC3)c1ccccc1F	-17%	-15%
COc1ccc(-n2ncc3c(N4CCN(c5cccc(C)c5C)CC4)ncnc32)cc1	u	-30%
CCCCNS(=O)(=O)c1cc(-c2nn(C)c(=O)c3ccccc23)ccc1C	-24%	-1%
Cc1ccccc1CN1CCc2nnc(C(C)NC(=O)c3cc(F)ccc3F)n2CC1 (centres undefined)	0%	i
O=C(Cc1ccc([N+](=O)[O-])cc1)Nc1ccc2c(c1)C(=O)NC2=O	-2%	5%
COc1cc(CNS(=O)(=O)c2ccc3c(c2)CC(C)N3C(C)=O)cc(OC)c1OC (centres undefined)	-16%	-3%
Nc1nc2n(n1)C(c1cccc(Br)c1)CC(c1ccccc1)N2 (centres undefined)	-9%	-12%
CCOC(=O)N1CCC(N2C(=O)c3ccc(C(=O)O)cc3C2=O)CC1	-11%	-15%
CC(C)CC(=O)Nc1c(C(=O)N2CCN(c3ccccc3)CC2)oc2ccccc12	-19%	-15%
CS(=O)(=O)c1ccc(C(=O)OCC(=O)Nc2cccc(S(=O)(=O)N3CCCC3)c2)cc1	-12%	-5%
CC(N)(C(=O)O)c1ccc(P(=O)(O)O)cc1 (centres undefined)	-9%	-6%
O=C(OCC1CC(c2ccccc2)=NO1)c1ccc(Cl)cc1 (centres undefined)	-11%	i
Cn1c(=O)c2c(nc(N3CCN(c4ccc([N+](=O)[O-])cc4)CC3)n2C)n(C)c1=O	-10%[7.34 µM]	9%[7.34 µM]
O=[N+]([O-])c1ccc(N2CCN(S(=O)(=O)c3ccccc3)CC2)cc1N1CCc2ccccc2C1	-2%	-11%
CCCC1CC(C(=O)NC(C(C)Cl)C2OC(SC)C(O)C(O)C2O)N(C)C1 (centres undefined)	-11%	-10%
O=C(COc1ccc(F)cc1)NCC(c1ccc(Cl)cc1)N1CCCCC1 (centres undefined)	-6%	-11%
CCC(=O)Nc1cccc(NC(=S)NC(=O)c2ccccc2)c1	-6%	-7%
O=C(O)c1ccc(OCCCCCCOC2CCCCO2)cc1 (centres undefined)	-18%	i
CC1CCCN(C(=O)CCc2nnc(-c3ccc4c(c3)OCO4)o2)C1 (centres undefined)	-16%	-15%
COc1ccc(-c2csc(NC(=O)c3ccc(OCC(=O)N4CCOCC4)c(OC)c3)n2)cc1	-19%	-18%
C=CCNc1oc(-c2cccs2)nc1S(=O)(=O)c1ccccc1	-7%	-2%
Cc1ccc(NC(=O)c2ccc(Cl)c(S(=O)(=O)N3CCc4ccccc43)c2)nc1	-22%	-8%
CCOc1ccc(CNC(=O)c2c(C)nn(-c3ccc(F)cc3)c2-n2cccc2)cc1	-7%	-14%
CCCCCCC(=O)N1C/C=C\C(c2ccc(OC)cc2)N(Cc2ccc(F)cc2)C(=O)C1 (centres undefined)	-17%	-16%
CN(C)c1nc(NCc2ccccc2)nc(SCC(N)=O)n1	-10%	-18%
CS(=O)(=O)c1ccc(Cl)c(NC(=O)C2CC(=O)N(c3ccc4c(c3)OCCO4)C2)c1 (centres undefined)	-23%	-13%
COC(=O)[C@]1(C)N[C@H](CN(C)C(=O)C2CCCCC2)[C@@H]2C(=O)N(Cc3ccccc3)C(=O)[C@@H]21	1%	-8%
CC(C)c1ccc(NC(=O)Cn2nnc(C(=O)NCc3ccco3)c2N)cc1	-17%	i
O=S(=O)(CCN1CCOCC1)c1ccccc1	u	u
Nc1ncnc2c1ncn2[C@@H]1O[C@H](C(=O)NS(=O)(=O)c2cccc(F)c2)[C@@H](O)[C@H]1O	-11%	4%
CN1CC(CNC(=O)OCc2ccccc2)CC2c3cccc4c3c(cn4C)CC21 (centres undefined)	u	u
CC(NC(=O)/C(=C/c1ccc(OC(F)F)cc1)c1ccccc1)c1ccccc1 (centres undefined)	u	u
C/C(=N\Nc1cccc(C(=O)O)c1)c1ccc2c(c1)Nc1ccccc1S2	-11%	-48%
N#Cc1cc2c([nH]c1=S)CCCC2	-13%	-13%
Cc1cc(C)c(C#N)c(Nc2ccccc2Cl)n1	-10%	-14%
O=C(c1ccccn1)N1CCCC(N2CCN(c3cccc(C(F)(F)F)c3)CC2)C1 (centres undefined)	-25%	u
N#C/C(=C\c1ccccc1O)C(=O)Nc1cccnc1	-13%	-14%
Cc1c(NC(=O)CSc2nnnn2C)c(=O)n(-c2ccccc2)n1C	-3%	x
Cc1cc(S(=O)(=O)N2CCCC2)ccc1OCC(=O)Nc1ccccc1	-17%	-18%
COC(=O)C1=C(c2c(C)noc2C)C[C@@H]2CC[C@H]1N2C(=O)NCc1ccc(F)cc1	-29%	i
O=C(CN1C(=O)COc2ccc(S(=O)(=O)N3CCOCC3)cc21)N1CCN(c2cccc(C(F)(F)F)c2)CC1	13%	11%
Cc1cc(-c2nnc3n2N=C(c2ccccc2Br)CS3)n[nH]1	-18%	-3%
CCN(CC(=O)Nc1ccccc1-c1ccccc1)Cc1nc2ccccc2c(=O)[nH]1	-7%	i
CC1CCC(N2CC(=O)N(C3CCCCC3)C(c3ccc(Cl)cc3)C2=O)CC1 (centres undefined)	-9%	0%
CCOC(=O)N1CCN(C(=O)c2cc(S(=O)(=O)N3CCc4ccccc43)ccc2OC)CC1	-11%	i
C=CCNc1nc(NCc2ccco2)nc(OCC)n1	0%	x
COc1cccc(CNC(=O)COC(=O)c2c(NC(C)=O)sc(C)c2C)c1	-18%	-14%

Following part:
SMILES	VACV Venus inh	VACV mCherry inh
COc1ccc(N2CCN(Cc3cc(=O)oc4cc5c(cc34)CCCC5)CC2)cc1	-3%	x
O=C(O)c1ccc(CN2C[C@@H](CO)O[C@@H](n3cnc4c(N5CCOCC5)ncnc43)C2)cc1	-2%	2%
O=C(c1ccc(N2CCOCC2)cc1)N1CCCC(Nc2ccccc2)C1 (centres undefined)	8%[7.34 µM]	-10%[7.34 µM]
COc1ccc(CNC(=O)CC[C@H]2O[C@@H](n3cnc4c(NC(=O)c5ccccc5)ncnc43)[C@H](O)[C@@H]2O)cc1	6%	i
O=C1N[C@@H](Cc2ccccc2)C(=O)N2[C@@H]3N(S(=O)(=O)c4ccc(F)cc4)c4ccccc4[C@]3(Br)C[C@@H]12	-21%	u
OC(CNCC1CCCCC1)COc1ccccc1 (centres undefined)	-12%	-8%
CCOC(=O)c1c(NC(=O)c2cccs2)sc2c1CC(C)(C)OC2	2%	x
CC(C)Oc1ccc(Oc2ccc(C(F)(F)F)cn2)cc1	-1%	-2%
COc1cccc(CNC(=O)c2cc3oc4ccccc4c3n2C)c1OC	-14%	-19%[1.46 µM]
CCOc1ccccc1C(=O)NCC(=O)N(C)CC(=O)Nc1ccc(N2CCOCC2)cc1	-10%	i
O=C(OCn1nnc2ccccc2c1=O)c1cn(-c2ccccc2)nc1-c1cccnc1	-17%	-30%
Cc1cccc2nc(Cn3c(=O)n(CCCC(=O)NCc4ccco4)c(=O)c4ccccc43)cc(=O)n12	-2%	-14%
CC(C)(C)c1ccc(CC(=O)N2CCC2(C)C(=O)NS(=O)(=O)c2cccc(OC(F)F)c2)cc1 (centres undefined)	-4%	1%
CCOc1ccc(NC(=O)C2(c3ccc(OC)c(OC)c3)CCCC2)cc1	-13%	-33%
COc1ccc(NC(=O)c2oc3ccccc3c2CSC)cn1	-7%	-1%
O=C(O)c1cc[c]([Hg][Cl])cc1	-7%	i
Nc1ccn(CC(=O)NCCc2ccccn2)c(=O)n1	-9%	-4%
O=C(O)CN1C(=O)/C(=C\c2cccc(OCc3ccc(Cl)cc3Cl)c2)SC1=S	0%	i
COc1ccccc1NC(=O)CCN1CCC(C(N)=O)CC1	-6%	-8%
COc1cc(OC)cc(C2=Cc3ccc(OC)cc3C(CC(C)=O)N2c2ccc(-c3cccs3)cc2)c1 (centres undefined)	2%	19%
CC1=C(C(=O)N2CCOCC2)CC(CC(=O)NCc2cccs2)C(=O)N1Cc1ccc(C(C)(C)C)cc1 (centres undefined)	-12%	-9%
COc1cc(=O)n2c(c1C(=O)NCc1ccsc1)CCN(Cc1nc3ccccc3[nH]1)CC2	-15%	-9%
O=Cc1cn(Cc2ccc(F)cc2Cl)c2ccccc12	-3%	-27%
Cc1cccc(-c2cc(=O)c(C(=O)O)cn2-c2ccc(F)cc2F)c1	-17%	-14%
FC(F)(F)c1ccc(-n2cn[nH]c2=S)cc1	-4%	i
O=C(c1ccc2c(Cl)c3c(nc2c1)CCCC3)N1CCC(N2CCCCC2)CC1	u	-24%
O=C(O)CCSc1ccc([N+](=O)[O-])cc1[N+](=O)[O-]	-11%	-9%
O=C(Nc1ccon1)c1ccc(F)c(S(=O)(=O)N2CCCCC2)c1	-18%	-15%

Part of the list above in order of heavy-atom count, highest first.
SMILES	VACV Venus inh	VACV mCherry inh
Cc1cccc2nc(Cn3c(=O)n(CCCC(=O)NCc4ccco4)c(=O)c4ccccc43)cc(=O)n12	-2%	-14%
CC(C)(C)c1ccc(CC(=O)N2CCC2(C)C(=O)NS(=O)(=O)c2cccc(OC(F)F)c2)cc1 (centres undefined)	-4%	1%
CCOc1ccccc1C(=O)NCC(=O)N(C)CC(=O)Nc1ccc(N2CCOCC2)cc1	-10%	i
O=C(OCn1nnc2ccccc2c1=O)c1cn(-c2ccccc2)nc1-c1cccnc1	-17%	-30%
O=C(c1ccc2c(Cl)c3c(nc2c1)CCCC3)N1CCC(N2CCCCC2)CC1	u	-24%
O=C(O)CN1C(=O)/C(=C\c2cccc(OCc3ccc(Cl)cc3Cl)c2)SC1=S	0%	i
CCOc1ccc(NC(=O)C2(c3ccc(OC)c(OC)c3)CCCC2)cc1	-13%	-33%
Cc1cccc(-c2cc(=O)c(C(=O)O)cn2-c2ccc(F)cc2F)c1	-17%	-14%
O=C(Nc1ccon1)c1ccc(F)c(S(=O)(=O)N2CCCCC2)c1	-18%	-15%
COc1ccc(NC(=O)c2oc3ccccc3c2CSC)cn1	-7%	-1%
COc1ccccc1NC(=O)CCN1CCC(C(N)=O)CC1	-6%	-8%
CC(C)Oc1ccc(Oc2ccc(C(F)(F)F)cn2)cc1	-1%	-2%
Nc1ccn(CC(=O)NCCc2ccccn2)c(=O)n1	-9%	-4%
O=C(O)CCSc1ccc([N+](=O)[O-])cc1[N+](=O)[O-]	-11%	-9%
FC(F)(F)c1ccc(-n2cn[nH]c2=S)cc1	-4%	i
O=C(O)c1cc[c]([Hg][Cl])cc1	-7%	i

Bioassay records as filed in PubChem.
